Screens as filed in PubChem.
Rce1 inh = inhibitors of yeast Ras-converting enzyme | calls only | yeast membranes, quenched prenylated peptide cleavage fluorescence | AID 2563 | Q03530 | 290,000 compounds, 0.27% hits;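 active = fall in fluorescence gain of 50% or more versus controls, with final raw signal at or below 3038400; inconclusive = same 50% fall but final raw signal above 3038400; inactive = fall in fluorescence gain under 50%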;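 also: plate controls were neutral control wells for no effect and wells lacking membranes for full effect; tested at 10 µM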
Target sequence (Q03530 whole entry, looked up): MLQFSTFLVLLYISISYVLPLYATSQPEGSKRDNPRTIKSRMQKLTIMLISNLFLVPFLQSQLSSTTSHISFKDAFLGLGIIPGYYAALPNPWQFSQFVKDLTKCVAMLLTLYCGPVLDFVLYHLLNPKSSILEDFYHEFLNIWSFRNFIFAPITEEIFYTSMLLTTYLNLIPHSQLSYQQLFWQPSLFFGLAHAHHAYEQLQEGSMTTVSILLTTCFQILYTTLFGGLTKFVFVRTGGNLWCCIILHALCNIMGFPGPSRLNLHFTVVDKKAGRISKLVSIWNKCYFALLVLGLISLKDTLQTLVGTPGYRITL
UUG fidelity = yeast start codon fidelity modulation. S. cerevisiae UUG-firefly luciferase reporter, luminescence/redox ratio. activity score, % at 18.7 µM. 350,000 compounds, 0.13% hits. AID 602363;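 active = replicate mean at a twofold rise or more, about +100% in these data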;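 also: firefly luciferase made from a UUG start codon reports start codon fidelity; reporter light over untreated wells divided by growth signal over untreated wells; some hits fall short of that in this replicate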
CSC inhib = blocks cancer stem cells. cancer stem cell-like cells viability, luminescence. inhibition, % at 7.5 µM. 300,000 compounds, 1.1% hits;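 active = mean at 75% or more and at least half the replicates too; inconclusive = mean and replicates disagree; tested in HMLE shEcad cells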;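 also: 0% = median of negative and 100% = median of positive control wells; the first replicate is given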
MT1-MMP act inh = blocks activation of human MT1-MMP | 360,000 compounds, 0.061% hits | AID 651647 | HT1080 RFP-PRO-GFP cells, GFP/RFP ratio fluorescence, overnight; percent of plate control window, DMSO zero | GFP/RFP ratio change, % at 20 µM | P50281;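 active = GFP/RFP ratio change of at least 30% with cell ATP level not reduced by more than half and red fluorescence within 50% of control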; also: strong numbers were not always called active
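Assay system: RFP-PRO-GFP reporter HT1080 cells; read-out basis: GFP/RFP fluorescence ratio; benchmarks: DMSO wells and RFP-L50D-GFP cells; doses: 20 µM single dose, 1% DMSO; schedule: overnight cell settling, then overnight compound exposure, 37 °C, 5% CO2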
PABP FP inh = blocks human PABP binding to poly(A) RNA; P11940; fluorescence polarization; inhibition, % at 35 µM; 290,000 compounds, 1% hits;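 active = 50% or more with normal probe brightness, or confirmed in later tests; inconclusive = above 50% with abnormal brightness, or retests that disagree; inactive = below 50% or failed in later tests; about a fifth of its hits are not listed in these tables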;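 also: calls also rest on retests at 20 µM and on dose response follow-up; controls were probe without protein and protein plus probe with vehicle; some compounds called inactive have numbers as strong as hits; many hits fall short of the cut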
Target sequence (P11940 whole entry, looked up): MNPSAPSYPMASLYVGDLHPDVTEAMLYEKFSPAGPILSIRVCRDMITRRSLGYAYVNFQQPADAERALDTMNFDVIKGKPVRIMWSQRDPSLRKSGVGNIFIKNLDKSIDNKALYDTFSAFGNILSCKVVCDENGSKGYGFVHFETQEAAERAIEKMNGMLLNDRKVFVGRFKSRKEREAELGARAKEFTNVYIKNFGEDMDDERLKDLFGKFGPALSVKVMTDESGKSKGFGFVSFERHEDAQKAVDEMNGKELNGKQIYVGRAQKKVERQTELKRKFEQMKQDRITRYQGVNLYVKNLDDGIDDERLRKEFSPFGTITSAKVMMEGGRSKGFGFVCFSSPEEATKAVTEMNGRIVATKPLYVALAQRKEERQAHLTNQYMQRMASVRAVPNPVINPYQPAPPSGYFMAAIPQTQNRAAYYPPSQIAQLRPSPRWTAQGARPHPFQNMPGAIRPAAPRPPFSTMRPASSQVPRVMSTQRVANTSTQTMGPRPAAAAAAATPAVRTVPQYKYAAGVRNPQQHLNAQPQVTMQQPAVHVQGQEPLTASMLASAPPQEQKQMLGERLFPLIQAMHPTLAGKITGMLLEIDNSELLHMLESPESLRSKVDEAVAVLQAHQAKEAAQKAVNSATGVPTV
HIV Env fusion = inhibitors of HIV Env-mediated cell fusion | HeLa-JRFL Env/CEM21 cell fusion, luciferase | inhibition, % at 12.3 µM | 360,000 compounds, 1.1% hits | AID 651610;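 active = mean replicate inhibition score of at least 50 and every replicate individually at or above 50; inconclusive = only one of the two criteria met; inactive = mean below 50 and not all replicates reaching 50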;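 also: 0% = plate neutral controls and 100% = maraviroc near 300 nM; one replicate is shown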
eIF4H inh = inhibitors of RNA binding by human eIF4H; Q15056; eIF4H fluorescence polarization binding assay; inhibition, % at 35 µM; 290,000 compounds, 0.94% hits; AID 2012;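 active = 50% or more with normal probe brightness, or confirmed in later tests; inconclusive = above 50% with abnormal brightness, or retests that disagree; inactive = below 50% or failed in later tests; about a fifth of its hits are not listed in these tables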;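 also: calls also rest on retests at 20 µM and on dose response follow-up; 0% = protein and probe with vehicle and 100% = probe without protein; strong numbers were not always called active; many hits fall short of the cut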
eIF4H inh retest = second read-out of eIF4H inh, no call of its own (marks repeat the call); inhibition, %; compound at 20 µM; confirmation average;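 mean of two retest wells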
PABP FP inh retest = also measured in PABP FP inh; calls as there; inhibition, %; compound at 20 µM; confirmation repeats;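 mean of two retest wells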
MT1-MMP act inh RFP = second read-out of MT1-MMP act inh, no call of its own (marks repeat the call); RFP signal change, %; measured here: RFP expression control read;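 0 = vehicle wells; hits needed this value within 50% of zero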
The depositor's hits bear a star; i = inactive; ? = inconclusive; / = no result given. Some of the compounds tested; the hit share may differ from the screen's.

SMILES | Rce1 inh | UUG fidelity | CSC inhib | MT1-MMP act inh | MT1-MMP act inh RFP | PABP FP inh | HIV Env fusion | eIF4H inh | others
Cc1ccc(/C=C/C(=O)N2CCCC(C)C2)cc1 (stereo not drawn) | i | -40 | -6 | 0 | 1 | -7 | -109 | 1
CCCC(=O)OCCNc1cc(Sc2nc3ccccc3[nH]2)c2nonc2c1[N+](=O)[O-] | i | -11 | 4 | 3 | -1 | 2 | -32 | 10
Cc1ccc(OCc2ccc(C(=O)O)o2)c([N+](=O)[O-])c1 | i | -28 | / | -3 | 4 | 5 | 4 | -6
Cc1ccccc1NC(=O)CSCc1cc(=O)n2ccsc2n1 | i | 11 | -18 | -1 | 3 | / | -8 | /
O=C(O)C1C(c2ccccc2)C(C(=O)OCc2ccco2)C1c1ccccc1 (stereo not drawn) | i | 8 | -16 | 0 | 3 | 18 | -35 | -1
COc1ccccc1N(CC(O)CN1CCCCC1)S(=O)(=O)c1ccc(C)cc1 (stereo not drawn) | i | -8 | 18 | -4 | 0 | -5 | -16 | 6
CCN(C[C@H]1N[C@@](CC)(C(=O)OC)[C@H]2C(=O)N(C)C(=O)[C@@H]12)C(=O)Nc1ccc(C)cc1 | / | -18 | / | -4 | 4 | / | -41 | /
O=C(Nc1ccc(N2CCN(Cc3ccccc3)CC2)cc1)c1ncn[nH]1 | i | -3 | -1 | -2 | -7 | -6 | -32 | -8
CC(C)NC(=O)NC(=O)CSc1ccccc1F | i | / | -8 | 2 | 8 | -1 | -29 | -2
Cc1ccc(C(=O)Nc2cccc(C(F)(F)F)c2)cc1Nc1ccccn1 | i | -10 | -29 | 11 | -5 | 5 | -31 | -3
Cc1ccc(-c2csc3nnc(SCC(=O)N4CCN(Cc5ccccc5)CC4)n23)cc1 | i | / | -11 | 0 | 0 | -14 | 7 | -20
O=C(O)CCn1cnc2ccccc2c1=O | i | -16 | 10 | -1 | 1 | 16 | / | -1
C=CCS(=O)(=O)c1cccc2cccnc12 | / | / | 2 | -3 | 3 | -2 | 20 | 5
CC1(C(=O)NC2CCCC2)CCC(=O)N1Cc1ccccc1 (stereo not drawn) | i | -7 | -11 | 3 | -1 | 3 | -99 | 7
O=C(Nc1ccc(NC(=O)c2cccs2)c(Cl)c1)c1ccco1 | i | / | -2 | 0 | 4 | 2 | -10 | -9
CCN(CC)S(=O)(=O)c1ccc2oc(C(=O)NC3CCCc4ccccc43)c(C)c2c1 (stereo not drawn) | i | -17 | 25 | 1 | -3 | 4 | 21 | 4
COc1ccc(C(=O)NC(=S)Nc2cccnc2)cc1OC | i | / | 0 | -1 | -2 | -3 | -6 | 4
Cc1cc(C(=O)OCC(=O)c2ccc(Br)s2)no1 | i | -11 | -2 | 2 | 2 | 4 | / | 6
O=C(C1CCN(S(=O)(=O)c2cccs2)CC1)N(c1ccccn1)C1CCCCC1 | i | 0 | 2 | 0 | 0 | -14 | 29 | -3
Clc1nnc(NN=C2CCCC2)c2ccccc12 | i | -6 | -6 | -6 | 4 | -2 | -23 | -9
CS(=O)(=O)N(CC(=O)NCCC1=CCCCC1)C1CCCCC1 | i | 11 | -19 | 0 | 1 | 5 | / | 1
CCOc1ccc(C(=O)NCc2ccncc2)cc1OCC | i | -16 | -14 | 1 | -2 | 7 | / | -11
CON1C(=O)C(=O)N(OC)C2CCCCC21 (stereo not drawn) | i | / | / | 1 | -1 | -5 | -13 | -2
Oc1ccc(O)c(Cc2nc3ccccc3s2)c1 | i | / | 31 | -41 | -17 | 6.5* | -1 | 82* | eIF4H inh retest=87*;PABP FP inh retest=55*
O=C1N=C(N2CCOCC2)S/C1=C/c1cccs1 | i | -16 | -10 | 1 | 1 | 8 | -16 | -3
SMILES | Rce1 inh | UUG fidelity | CSC inhib | MT1-MMP act inh | MT1-MMP act inh RFP | PABP FP inh | HIV Env fusion | eIF4H inh | others
CCCN(CC(=O)Nc1ccc(C(N)=O)cc1)CC(=O)Nc1ccc(F)c(F)c1F | i | -15 | -4 | 0 | -3 | -2 | -3 | -11
O=C(c1c(F)cccc1F)N1CCCc2ccccc21 | i | -2 | -14 | 1 | 0 | 10 | -241 | 0
CN(c1ccccc1)S(=O)(=O)c1cccc(C(=O)NNC(=O)c2ccncc2)c1 | i | 3 | -6 | 0 | -1 | / | 0 | /
O=C(O)c1ccc2nc(-c3ccccc3)c(-c3ccccc3)nc2c1 | i | / | -5 | -7 | 4 | -1 | / | -10
CC(C)c1ccc(NC(=O)C(c2ccccc2)N(C)C(=O)c2cnccn2)cc1 (stereo not drawn) | i | -17 | -10 | -2 | -1 | 12 | 18 | -3
COc1ccc(NC(=O)CN(C)C(=O)c2cc(CN3C(=O)c4ccccc4C3=O)ccc2OC)cc1 | i | -5 | -7 | 0 | -2 | / | 1 | /
COC(=O)[C@H](CCSC)NC(=O)Nc1ccc(OC)cc1OC | i | -13 | -16 | 3 | 1 | -14 | -15 | -3
COc1ccc(NS(=O)(=O)Cc2ccccc2Cl)cn1 | i | -4 | -11 | -7 | -2 | -1 | -1 | -5
Cc1ccc(NC(=O)CC(C)c2ccccc2)cc1S(=O)(=O)N1CCOCC1 (stereo not drawn) | / | -2 | -8 | -2 | -17 | / | 22 | /
COCc1cc(C)nc(NC2CCCCC2)c1C#N | / | -11 | -13 | 4 | 1 | 12 | 32 | 3
O=C(CSc1nc2ccccc2c(=O)n1CCCC(=O)N1CCCC1)NCc1ccco1 | i | 39 | -7 | -1 | -3 | -6 | -23 | -8
CN(C)C(=O)c1ccc(Cl)cc1[N+](=O)[O-] | i | / | -18 | 1 | 5 | -10 | 5 | 2
CSc1cccc(NC(=S)N2CCC(N(C)C(C)C)CC2)c1 | i | / | 1 | 0 | 2 | -13 | 13 | 2
CC(C)n1c(SCC(=O)NCc2ccco2)nnc1C1CC1 | i | -4 | 8 | -3 | 1 | 4 | / | -7
CCn1ncc(Br)c1C(=O)Nc1ncc(C)s1 | i | / | / | -6 | 1 | -3 | -18 | 0
CCOC(=O)c1c[nH]c2nc(C)ccc2c1=O | i | / | -9 | -11 | 2 | 9 | -1 | 104 | eIF4H inh retest=-9;PABP FP inh retest=7
CN(C)c1ccc(P(=O)(COc2ccc([N+](=O)[O-])cc2)c2ccc(N(C)C)cc2)cc1 | i | -9 | -9 | -3 | -10 | 10 | 2 | -3
c1cncc(-c2csc(-c3cccnc3)n2)c1 | i | -16 | 0 | 0 | 1 | -4 | -10 | 4
C=CCNC(=O)C1CC(=O)N(c2ccc(OCC(=O)Nc3ccccc3)cc2)C1 (stereo not drawn) | i | -3 | -11 | -6 | 4 | 6 | -23 | 14
C=CCn1c(=O)/c(=C/c2ccc(C)o2)s/c1=C(/C#N)C(=O)c1ccccc1 | i | 16 | -13 | 12 | 75 | 128* | -56 | ? | PABP FP inh retest=94*
O=C(Cn1cnc2ccccc21)Nc1ccccc1-c1ccccc1 | i | -4 | -3 | -2 | -6 | -3 | 7 | 1
Cc1cccc(Nc2nc(N)c([N+](=O)[O-])c(N3CCC(C)CC3)n2)c1 | i | -15 | 9 | -1 | -16 | -8 | / | -1
O=C(Nc1cccc2ccccc12)N1CC=C(c2ccccc2)CC1 | i | -26 | 32 | -1 | -8 | 0 | -88 | 6
CNC(=O)c1ccsc1NC(=O)c1sc2ccccc2c1Cl | i | 5 | 10 | 8 | 7 | 52* | -44 | 54*
O=[N+]([O-])c1ccc(C[n+]2cccc3ccccc32)cc1 | i | / | -15 | -146 | 1 | -5 | -4 | ?
SMILES | Rce1 inh | UUG fidelity | CSC inhib | MT1-MMP act inh | MT1-MMP act inh RFP | PABP FP inh | HIV Env fusion | eIF4H inh | others
CSCCC(c1nnnn1C(C)(C)C)N1CCN(C/C=C/c2ccccc2)CC1 (stereo not drawn) | / | -9 | / | 3 | 2 | / | 3 | /
O=C1/C(=C/c2ccc(F)cc2)SC(=S)N1N1CCOCC1 | i | -20 | -4 | 4 | 0 | 11 | 15 | -6
COc1ccccc1CN(CC(=O)NCc1ccc(F)cc1)C(=O)c1csnn1 | i | 3 | -24 | -3 | -2 | -3 | 10 | 4
COc1ccc(-c2cc(-c3ccccc3)nc(-c3ccc4c(c3)NC(=O)CO4)c2)cc1 | i | -1 | 7 | -6 | -1 | 12 | 11 | 5
CC1CC(C)CN(C(=O)Cn2c(=O)n(CCCCC(=O)NC3CCCC3)c(=O)c3ccccc32)C1 (stereo not drawn) | i | -6 | -4 | -1 | -1 | -18 | / | 5
COc1ccccc1NC(=O)C1CCN(c2ncnc3c2nc2n3CCCCC2)CC1 | i | -21 | 18 | 4 | -4 | / | 15 | /
O=C(NNc1nc(N2CCOCC2)nc(N2CCOCC2)n1)Nc1ccc(Cl)cc1 | i | / | -8 | / | / | -2 | -5 | -8
COc1ccc(C(=O)OCC(=O)NC2CC2)cc1S(=O)(=O)N1CCOCC1 | i | / | 2 | 1 | 3 | 12 | -1 | -11
Cc1ccc(-c2csc3ncnc(Nc4ccc(C(=O)O)cc4)c23)cc1 | i | -5 | -5 | -5 | -11 | 2 | 5 | 24
O=C(Nc1nc(-c2ccc(F)c(F)c2)cs1)c1ccc(OCC2CCCO2)cc1 (stereo not drawn) | i | / | 6 | -13 | -25 | 2 | 30 | 10
CCn1c(CNS(=O)(=O)c2ccc(Br)cc2)n[nH]c1=S | i | -8 | -6 | 4 | 3 | -7 | -14 | -10
CC(=O)N1CCc2cc(S(=O)(=O)NCCC(=O)NC3CCCc4ccccc43)ccc21 (stereo not drawn) | i | -12 | -18 | 7 | 4 | 10 | / | -9
COc1ccc(NC(=O)C23CCC(C)(C(=O)C2)C3(C)C)cc1 (stereo not drawn) | i | -4 | / | -1 | 1 | 3 | / | -2
Cc1ccc(NC(=O)Cn2nnc3ccccc3c2=O)cc1 | i | / | -14 | 2 | 5 | 7 | -31 | -3
CCc1c(C)nc2ncnn2c1NCCc1ccc(Cl)cc1 | i | / | -9 | -7 | -27 | 10 | 28 | 1
Cc1cc(C)n2nc(CNS(=O)(=O)c3ccc([N+](=O)[O-])cc3)nc2n1 | i | -13 | -6 | -3 | -6 | -8 | 2 | -10
COc1ccc(CC(NC(C)=O)C(=O)N2CCN(C(=O)Nc3cccc(F)c3)CC2)cc1OC (stereo not drawn) | i | / | -1 | 0 | 3 | 1 | 13 | -4
C#Cc1ccc([C@@H]2C=C(C(=O)N3CCN(Cc4ccc5c(c4)OCO5)CC3)O[C@H](OCCCCO)C2)cc1 | i | -11 | 0 | 1 | -3 | 6 | -18 | -4
O=C(OCCN1C(=O)c2ccccc2C1=O)c1cccs1 | i | -4 | 2 | 0 | 0 | 2 | -132 | -3
CC1CN(/C=C/C=O)C(C)CC1OC(=O)c1ccccc1 (stereo not drawn) | i | 1 | -17 | 3 | 1 | 3 | 15 | -1
CCC/C=N/NC(=O)c1[nH]c2c([N+](=O)[O-])cccc2c1C | i | / | -4 | 2 | -1 | -15 | 4 | 5
Oc1ccc(N=Nc2c(O)ccc3ccccc23)cc1 | i | -8 | 78* | 73* | 3.3* | 9 | / | -13
Clc1ccccc1Nc1nc(NCc2cccs2)nc2ccsc12 | / | -39 | / | -4 | -15 | / | 34 | /

Quoted at random: 2 compounds from above
SMILES | Rce1 inh | UUG fidelity | CSC inhib | MT1-MMP act inh | MT1-MMP act inh RFP | PABP FP inh | HIV Env fusion | eIF4H inh | others
COc1ccccc1CN(CC(=O)NCc1ccc(F)cc1)C(=O)c1csnn1 | i | 3 | -24 | -3 | -2 | -3 | 10 | 4
CCc1c(C)nc2ncnn2c1NCCc1ccc(Cl)cc1 | i | / | -9 | -7 | -27 | 10 | 28 | 1
